RanGTP-Imp inh = inhibitors of RanGTP-importin-beta interaction, primary screen, biochemical, FRET, CFP-Ran, YFP-importin-beta, homogeneous | cell-free CFP-Ran/YFP-importin-beta FRET ratio | inhibition, % (test concentration not listed) | 300,000 compounds, 1.1% hits | AID 2216;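 active means most replicates above 15%; inconclusive means exactly half above 15%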;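 further: 0% = DMSO wells and 100% = Ran loaded with GDP instead of GTP; wells of about 40 µL received 100 nL stock; the first replicate is given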
Vif TR-FRET = HIV-1 Vif–A3G interaction blockers – biochemical, TR-FRET, GST-Vif 1-94, biotin-A3G peptide, dose response retest, primary screen (AID 1117319). TR-FRET GST-Vif / biotin-A3G peptide binding; higher % means a stronger effect; test concentration not given here; strong numbers were not always called active. inhibition, %; hits with a dose series show IC50 in µM. 260,000 compounds, 0.57% hits;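 active means above the screen mean plus three standard deviations and confirmed in dose response; inconclusive means results disagree or hit not tested in dose response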;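 further: Vif residues 1-94 fused to GST binding biotinylated APOBEC3G peptide 110-148; 0% = full assay without inhibitor and 100% = GST in place of GST-Vif; retest series ran down from 100 µM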
Beta apoptosis = blocks beta cell apoptosis; 300,000 compounds, 0.8% hits; protection from apoptosis, % (no concentration beside the values); INS-1E cytokine-induced death, ATP luminescence, 48 h; percent of positive-control rescue, neutral wells zero;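 active means all replicates at 75% or more, or half of them and the mean; inconclusive means half reach 75% but not the mean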;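 further: 0% = cytokine-treated negative control wells and 100% = positive control rescue; higher means more ATP so stronger rescue from cytokine killing; wells of about 40 µL received 100 nL stock; the first replicate is given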
Calb FLC = C. albicans growth modulation with fluconazole; C. albicans CaCi-2 (fluconazole-resistant clinical isolate) + fluconazole, Alamar Blue growth, 48 h; growth inhibition, % (test concentration not listed); 300,000 compounds, 0.57% hits;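 active means most replicates above 75%; inconclusive means exactly half above 75%; inactive means most below 75%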;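 further: all wells also contain fluconazole at 8 µg/ml as a sub-toxic cotreatment; 0% = median of DMSO wells and 100% = median of geldanamycin control wells; wells of about 8 µL received 7.5 nL stock; the first replicate is given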
Bfl-1 A1 inh = inhibitors of the anti-apoptotic protein A1, read as caspase activation; MEF A1-2A-BIM cells, Caspase-Glo 3/7 luminescence, 3 h; percent of clofoctol response, vehicle zero; caspase activation, % (test concentration not listed); 330,000 compounds, 0.066% hits;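 active means over half of replicate activation scores above 10%, or exactly half above 10 with the replicate mean above 10; inconclusive means replicate mean below 10 yet half the replicates above 10; inactive means over half of replicates below 10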;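 further: wells of about 30 µL received 50 nL stock; many hits fall short of the cut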
LANA-H2A inh = blocks KSHV LANA binding to histone H2A/H2B. 320,000 compounds, 0.6% hits. cell-free LANA-H2A/H2B peptide, fluorescence polarization. inhibition, % (no concentration beside the values). Q9QR71; in the data active means inhibition mostly above about 10%, no sharp cut-off; inactive means mostly below about 6.7%;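 further: stock transfer was 7.5 nL into about 10 µL; 0% = median of vehicle wells and 100% = median of positive control wells; one replicate is shown; the record names a cut of 25% in any replicate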
Target sequence (Q9QR71 whole entry, looked up): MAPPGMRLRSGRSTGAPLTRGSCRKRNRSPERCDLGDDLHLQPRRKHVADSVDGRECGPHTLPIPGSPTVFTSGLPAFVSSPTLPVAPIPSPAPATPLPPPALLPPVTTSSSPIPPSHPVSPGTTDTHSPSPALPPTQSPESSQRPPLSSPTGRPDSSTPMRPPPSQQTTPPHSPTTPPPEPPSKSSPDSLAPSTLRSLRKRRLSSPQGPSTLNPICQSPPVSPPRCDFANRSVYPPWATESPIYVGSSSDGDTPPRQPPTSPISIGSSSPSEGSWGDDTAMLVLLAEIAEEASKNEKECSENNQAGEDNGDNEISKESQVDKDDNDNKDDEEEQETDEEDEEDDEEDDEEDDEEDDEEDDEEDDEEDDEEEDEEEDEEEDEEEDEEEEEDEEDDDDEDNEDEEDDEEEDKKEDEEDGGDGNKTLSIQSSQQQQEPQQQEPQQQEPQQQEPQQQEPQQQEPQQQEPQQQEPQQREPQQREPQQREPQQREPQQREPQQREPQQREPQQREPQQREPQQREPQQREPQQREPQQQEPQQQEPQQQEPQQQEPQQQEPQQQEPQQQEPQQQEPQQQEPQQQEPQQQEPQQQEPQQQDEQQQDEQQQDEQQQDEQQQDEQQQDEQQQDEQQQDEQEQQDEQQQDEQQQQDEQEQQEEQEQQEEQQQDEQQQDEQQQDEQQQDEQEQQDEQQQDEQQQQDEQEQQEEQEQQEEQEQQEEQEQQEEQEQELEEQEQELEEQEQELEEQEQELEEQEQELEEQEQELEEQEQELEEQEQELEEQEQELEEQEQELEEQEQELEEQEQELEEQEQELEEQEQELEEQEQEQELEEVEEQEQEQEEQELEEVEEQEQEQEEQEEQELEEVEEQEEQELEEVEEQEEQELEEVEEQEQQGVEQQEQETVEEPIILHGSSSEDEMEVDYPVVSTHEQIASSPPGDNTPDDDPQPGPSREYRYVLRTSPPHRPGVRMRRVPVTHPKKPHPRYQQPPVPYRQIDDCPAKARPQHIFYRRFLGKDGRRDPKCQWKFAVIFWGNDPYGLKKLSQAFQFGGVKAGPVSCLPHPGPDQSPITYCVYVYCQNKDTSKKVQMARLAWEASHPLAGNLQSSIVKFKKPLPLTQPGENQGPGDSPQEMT
T cruzi inh = blocks replication of Trypanosoma cruzi | T. cruzi beta-gal in NIH3T3, luminescence, 90 h | inhibition, % (concentration not given with the values) | 300,000 compounds, 1.4% hits;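 active means mean inhibition across valid replicates above about 55%, limit read from the data; inconclusive means mean below that limit but half or more replicates reach it; inactive means mean below it, under half of replicates reach it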;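 further: signal also drops with host cell toxicity which is not excluded here; 0% = plate median of DMSO wells and 100% = zero luminescence signal; higher percent means less beta-gal luminescence so fewer parasites; stock transfer was 50 nL into about 50 µL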
AF4-AF9 inh = MLL-AF4/AF9 protein interaction inhibition; AID 651704; 350,000 compounds, 0.47% hits; inhibition, % at 10 µM; AlphaScreen, biotin-AF4 peptide binding to FLAG-AF9;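 active means every replicate reaching a set inhibition limit, whatever the replicate mean, cut at about 25% in these data; inconclusive means mean inhibition reaches that limit but some replicates miss it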;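 further: 0% = plate neutral control median and 100% = total signal loss; the record names both 10 and 1 µM as test concentration; the first replicate is given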
* hit, by the source's call; & = joins results of further samples.

NC(=O)c1cc2cc([N+](=O)[O-])ccc2oc1=O was read as RanGTP-Imp inh -0.8, Vif TR-FRET 7%, Beta apoptosis -7, Calb FLC -9, Bfl-1 A1 inh 0.3, LANA-H2A inh 7.5, T cruzi inh -2 and AF4-AF9 inh -2.2.
Screening CCN(Cc1cc2cc(C)ccc2[nH]c1=O)C(=O)c1cccc([N+](=O)[O-])c1 returned RanGTP-Imp inh 3.6, Vif TR-FRET 8%, Beta apoptosis 0, Calb FLC 7, Bfl-1 A1 inh -0.1, LANA-H2A inh 1.9, T cruzi inh -15 and AF4-AF9 inh -0.9.
`CCC(C)C(NC(=O)OCc1ccccc1)C(=O)NC(Cc1ccc(O)cc1)C(=O)OC` (stereo not drawn) gave RanGTP-Imp inh 0.6, Vif TR-FRET -1%, Beta apoptosis -2, Calb FLC 4, Bfl-1 A1 inh -0.1, LANA-H2A inh -2.4, T cruzi inh -6 and AF4-AF9 inh -7.4.
For Nc1nonc1-c1noc(CCCN2C(=O)c3ccccc3C2=O)n1 the results were RanGTP-Imp inh 2.1, Vif TR-FRET -6%, Beta apoptosis -1, Calb FLC 0, Bfl-1 A1 inh -0.3, LANA-H2A inh 0.4 and T cruzi inh -7.
`CCS(=O)(=O)c1nc(S(=O)(=O)c2ccc(Cl)cc2)c(N2CCC(O)CC2)s1` gave RanGTP-Imp inh 2.6, Beta apoptosis 0, Calb FLC 3, Bfl-1 A1 inh 1.1, LANA-H2A inh 0.5, T cruzi inh 3 and AF4-AF9 inh 5.8.
For O=C(O)C(O)C(O)c1nc2ccccc2[nH]1 (stereo not drawn) the results were RanGTP-Imp inh -0.9, Beta apoptosis 1, Calb FLC 4, Bfl-1 A1 inh 0.1, LANA-H2A inh -4.9, T cruzi inh -13 and AF4-AF9 inh -0.3.
CC(C)c1ccc(NC(=O)NC2CCN(CC(=O)Nc3cccc4ccccc34)CC2)cc1 was read as RanGTP-Imp inh 1.5, Vif TR-FRET 7%, Beta apoptosis 9, Calb FLC 18, Bfl-1 A1 inh 0.0, LANA-H2A inh 4.1 and T cruzi inh 56*.
COc1ccc2nc3oc(C(=O)N4CCN(c5cccc(Cl)c5)CC4)cc3cc2c1 was read as RanGTP-Imp inh -2.8, Vif TR-FRET 12%&-1%, Beta apoptosis -8, Calb FLC 4, Bfl-1 A1 inh -1.1, LANA-H2A inh -4.8 and T cruzi inh 36.
Screening CN(C)c1cccc(C(=O)N/N=C/c2ccoc2)c1 returned RanGTP-Imp inh 3.2, Beta apoptosis -4, Calb FLC 14, Bfl-1 A1 inh 0.0 and LANA-H2A inh 2.0.
Cc1ccc(S(=O)(=O)N(CCO)Cc2cc3ccc(C)c(C)c3[nH]c2=O)cc1 was read as RanGTP-Imp inh 5.8, Vif TR-FRET 20%, Beta apoptosis 2, Calb FLC 8, Bfl-1 A1 inh -1.0, LANA-H2A inh -3.5 and T cruzi inh -6.
COc1ccc(S(=O)(=O)N2CCC(C(=O)N3CCN(C)CC3)CC2)cc1OC was read as RanGTP-Imp inh 3.6, Vif TR-FRET 3%, Beta apoptosis 1, Calb FLC -11, Bfl-1 A1 inh -0.6, LANA-H2A inh 0.4, T cruzi inh 7 and AF4-AF9 inh -13.
For CCCCCCCCCCCC(=O)N/N=C/c1ccco1 the results were RanGTP-Imp inh -2.1, Vif TR-FRET 0%, Beta apoptosis -3, Calb FLC 13, Bfl-1 A1 inh -0.6, LANA-H2A inh -2.4 and T cruzi inh -4.
`COCCNCC1C(Oc2ccc(Cl)cc2)C(=O)N1c1ccccc1C` (stereo not drawn) gave RanGTP-Imp inh 0.0, Vif TR-FRET 13%, Beta apoptosis 1, Calb FLC -27, Bfl-1 A1 inh 0.6, LANA-H2A inh -3.7, T cruzi inh -1 and AF4-AF9 inh -2.1.
Screening CSc1ccc(C2=CC(=O)C[C@H](c3ccc(F)cc3)C2)cc1 returned Beta apoptosis 3, Bfl-1 A1 inh 0.2, LANA-H2A inh 0.7 and AF4-AF9 inh 5.0.
CCOc1ccc(CN2CCN(c3cc(C)nc4c5c(C)cc(C)nc5nn34)CC2)cc1 was read as RanGTP-Imp inh 11, Vif TR-FRET inconclusive, Calb FLC 43 and T cruzi inh 0.
`COc1ccc(-c2nc(CSCC(=O)N3CCN(c4cccc(C)c4)C(C)C3)c(C)o2)cc1OC` (stereo not drawn) gave RanGTP-Imp inh -3.6, Vif TR-FRET 9%, Beta apoptosis 10, Calb FLC -7, Bfl-1 A1 inh 0.1, LANA-H2A inh -0.5, T cruzi inh 8 and AF4-AF9 inh 12.
For CCCCn1c(N)c(N(CCOC)C(=O)COC(=O)COc2ccccc2C#N)c(=O)[nH]c1=O the results were RanGTP-Imp inh 2.3, Vif TR-FRET -1%, Beta apoptosis -3, Calb FLC -5, Bfl-1 A1 inh 0.5, LANA-H2A inh -1.7, T cruzi inh -2 and AF4-AF9 inh -16.
For COc1cc2c(cc1OC)C(C(=O)O)C(c1cc(Br)c(O)c(OC)c1)N(C)C2=O (stereo not drawn) the results were RanGTP-Imp inh 2.3, Vif TR-FRET 68%, Beta apoptosis -4, Calb FLC -3, Bfl-1 A1 inh 0.1, LANA-H2A inh -0.9 and T cruzi inh -9.
For Cc1cc(C)n2nc(SCC(=O)Nc3ccccc3C)nc2n1 the results were RanGTP-Imp inh -1.6, Vif TR-FRET 4%, Beta apoptosis 0, Calb FLC -1, Bfl-1 A1 inh 0.8, LANA-H2A inh 0.2, T cruzi inh 3 and AF4-AF9 inh 0.1.
Screening Cc1nc2c(cnn2-c2ccccc2)c(=O)[nH]1 returned RanGTP-Imp inh 3.7, Vif TR-FRET -5%, Beta apoptosis -6, Calb FLC 3, Bfl-1 A1 inh 0.3, LANA-H2A inh 4.4, T cruzi inh 18 and AF4-AF9 inh -0.8.
For COc1ccc(-c2cc(C(F)(F)F)nc(NCc3cccs3)n2)cc1 the results were RanGTP-Imp inh 2.7, Vif TR-FRET -19%, Beta apoptosis 3, Calb FLC -2, Bfl-1 A1 inh 0.2, LANA-H2A inh 0.9, T cruzi inh 55* and AF4-AF9 inh -6.0.
`CCc1ccc(C2C3=C(CC(C)(C)CC3=O)Nc3c2c(=O)[nH]c2nc(C)nn32)cc1` (stereo not drawn) gave RanGTP-Imp inh 40*, Vif TR-FRET 2%, Beta apoptosis 1, Calb FLC -18, Bfl-1 A1 inh 6.1*, LANA-H2A inh 2.2 and T cruzi inh -9.
For CCc1c(C)c2ccc(OCC(N)=O)cc2oc1=O the results were RanGTP-Imp inh inconclusive, Vif TR-FRET 5%, Beta apoptosis 2, Calb FLC 21, LANA-H2A inh -5.7 and T cruzi inh 7.
`Cc1ccc2oc(C(=O)Nc3nonc3C)c(C)c2c1` gave RanGTP-Imp inh 0.6, Calb FLC -2, T cruzi inh -14 and AF4-AF9 inh -2.6.
Screening Cc1[nH]nc2c1C(c1c[nH]c3ccccc13)C(C#N)=C(N)O2 (stereo not drawn) returned RanGTP-Imp inh 5.9, Vif TR-FRET -8%, Calb FLC 2, Bfl-1 A1 inh -1.1, LANA-H2A inh 7.6 and T cruzi inh -6.
For Cc1cc(Nc2cccc(C(=O)O)c2)n2ncnc2n1 the results were RanGTP-Imp inh 5.9, Beta apoptosis -2, Calb FLC -8, Bfl-1 A1 inh 0.8, LANA-H2A inh -0.9, T cruzi inh 1 and AF4-AF9 inh -0.6.
Screening Cc1cccc(Nc2nnc(SCC3CCCCO3)s2)c1C (stereo not drawn) returned RanGTP-Imp inh 1.4, Vif TR-FRET 5%, Beta apoptosis 4, Calb FLC 7, Bfl-1 A1 inh 0.3, LANA-H2A inh 3.7, T cruzi inh 2 and AF4-AF9 inh -11.
Screening COc1ccc(N2C(=O)CN(Cc3ccc(OC)c(OC)c3)C2=S)cc1 returned RanGTP-Imp inh 1.6, Beta apoptosis 0, Calb FLC 24, Bfl-1 A1 inh -1.4, LANA-H2A inh -0.5, T cruzi inh -5 and AF4-AF9 inh 0.2.
`COC(=O)c1c(C)[nH]c(C)c1-c1ccccc1Cl` gave RanGTP-Imp inh 1.3, Vif TR-FRET -3%, Beta apoptosis 1, Calb FLC 6, Bfl-1 A1 inh 0.1, LANA-H2A inh -2.1 and T cruzi inh 10.
`Nc1nc(-c2cc3c(cc2Cl)OCCO3)cs1` gave RanGTP-Imp inh -2.9, Vif TR-FRET 1%, Beta apoptosis -1, Calb FLC 9, Bfl-1 A1 inh 2.2, LANA-H2A inh 3.7, T cruzi inh -11 and AF4-AF9 inh 1.0.
For CCOc1ccc(N(C(C)C(=O)Nc2ccc(OC)cc2)S(C)(=O)=O)cc1 (stereo not drawn) the results were RanGTP-Imp inh 0.2, Vif TR-FRET 13%, Beta apoptosis -2, Calb FLC 2, Bfl-1 A1 inh -0.4, LANA-H2A inh -1.7 and T cruzi inh -3.
Screening CCCn1c(SCC(=O)Nc2c(CC)cccc2CC)nnc1C(C)C returned RanGTP-Imp inh 5.1, Vif TR-FRET 31%, Beta apoptosis -5, Calb FLC 1, Bfl-1 A1 inh 0.7, LANA-H2A inh -1.3 and T cruzi inh -8.
Screening CCCCc1ccc(Nc2nc(CCC)cc(=O)[nH]2)cc1 returned RanGTP-Imp inh 0.6, Vif TR-FRET -3%, Beta apoptosis 34, Calb FLC -8, Bfl-1 A1 inh -1.5, LANA-H2A inh -2.2 and T cruzi inh -5.
O=C(O)C1=C[C@H](c2ccccc2)C[C@H](OCCCCO)O1 was read as RanGTP-Imp inh -3.2, Beta apoptosis -3, Calb FLC -5, Bfl-1 A1 inh 0.7, LANA-H2A inh -0.6, T cruzi inh -7 and AF4-AF9 inh -1.5.
For Cc1ccccc1CC(=O)N1CCN(C(=O)c2ccco2)CC1 the results were Vif TR-FRET -8%, Beta apoptosis -8, Bfl-1 A1 inh -0.7, LANA-H2A inh 4.2, T cruzi inh -19 and AF4-AF9 inh -3.6.
Screening COc1cc(C2=CCN(C(C)=O)CC2)ccc1OC(C)=O returned RanGTP-Imp inh 2.7, Beta apoptosis 2, Calb FLC -1, Bfl-1 A1 inh 0.4, LANA-H2A inh 0.1 and T cruzi inh -12.
`CCOc1cc(N2CCOCC2)c(OCC)cc1NC(=O)COc1ncnc2ccc(Br)cc12` gave RanGTP-Imp inh 1.7, Vif TR-FRET 32%, Beta apoptosis -1, Calb FLC 0, Bfl-1 A1 inh 0.2, LANA-H2A inh -4.3 and T cruzi inh -13.
Screening CCS(=O)(=O)N1Cc2ccccc2CC1C(=O)NCC12CC3CC(CC(C3)C1)C2 (stereo not drawn) returned RanGTP-Imp inh 2.6, Vif TR-FRET -3%, Beta apoptosis -4, Calb FLC -3, Bfl-1 A1 inh 0.4, LANA-H2A inh -1.6 and T cruzi inh 10.
`C=CCn1c(C)csc1=Nc1ccc(C(=O)O)cc1` gave RanGTP-Imp inh 3.8, Vif TR-FRET 26%, Beta apoptosis -5, Calb FLC 4, Bfl-1 A1 inh 0.3, LANA-H2A inh 0.5, T cruzi inh -13 and AF4-AF9 inh -1.4.
